Bioassay records: PubChem, several laboratories
HNF4A DNA FP – change in binding of human HNF4 alpha to DNA; HNF4a-FITC DNA binding, fluorescence polarization, 1 h; activity change, % at 10 µM; hit rate 0.3% among 360,000; in the data active = activity change above about 30%, passing the limit was not always enough;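 also: controls were the assay level and a saturating level of protein; the project sought stronger binding though the title names inhibitors; some compounds called inactive have numbers as strong as hits; positive values seem to mean higher polarization but the record does not say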
UCH37 inh – blocks the human deubiquitinase UCH37 | inhibition, % (no concentration beside the values) | hit rate 0.33% among 330,000 | purified proteasome/UCH37, Ub-AMC cleavage fluorescence;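 active = mean of two replicates above 20%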;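 also: 0% = compound-free wells with enzyme and 100% = wells lacking proteasome; stock transfer was 100 nL into about 20 µL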
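Material: Human UCH37 enzyme supplied as purified proteasome complex | Schedule: 30 min compound-proteasome preincubation then 25 min substrate reaction, room temperature | Detection: AMC fluorescence from Ub-AMC cleavage, excitation 355 nm, emission 460 nm | Benchmarks: Wells without proteasome as full block, compound-free enzyme plus substrate as uninhibited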
Vif A3G – inhibitors of Vif binding to APOBEC3G peptide, primary screen, biochemical, TR-FRET, GST-Vif 1-94, biotin-A3G peptide, dose response retest (AID 1117319); hit rate 0.57% among 260,000; inhibition, %, or IC50 in µM where a hit was titrated; TR-FRET GST-Vif / biotin-A3G peptide binding; higher % means a stronger effect; test concentration not given here; strong numbers were not always called active;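 active = above the screen mean plus three standard deviations and confirmed in dose response; inconclusive = results disagree or hit not tested in dose response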;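 also: Vif residues 1-94 fused to GST binding biotinylated APOBEC3G peptide 110-148; 0% = full assay without inhibitor and 100% = GST in place of GST-Vif; retest series ran down from 100 µM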
Bfl-1 A1 inh – inhibitors of the anti-apoptotic protein A1, read as caspase activation | MEF A1-2A-BIM cells, Caspase-Glo 3/7 luminescence, 3 h; percent of clofoctol response, vehicle zero | caspase activation, % (no concentration beside the values) | hit rate 0.066% among 330,000 | AID 2462;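 active = over half of replicate activation scores above 10%, or exactly half above 10 with the replicate mean above 10; inconclusive = replicate mean below 10 yet half the replicates above 10; inactive = over half of replicates below 10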;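 also: wells of about 30 µL received 50 nL stock; many hits fall short of the cut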
LANA-H2B inh – blocks KSHV LANA binding to histone H2A/H2B; cell-free LANA-H2A/H2B peptide, fluorescence polarization; hit rate 0.6% among 320,000; inhibition, % (no concentration beside the values); Q9QR71; in the data active = inhibition mostly above about 10%, no sharp cut-off; inactive = mostly below about 6.7%;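 also: stock transfer was 7.5 nL into about 10 µL; 0% = median of vehicle wells and 100% = median of positive control wells; one replicate is shown; the record names a cut of 25% in any replicate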
Target sequence (Q9QR71 whole entry, looked up): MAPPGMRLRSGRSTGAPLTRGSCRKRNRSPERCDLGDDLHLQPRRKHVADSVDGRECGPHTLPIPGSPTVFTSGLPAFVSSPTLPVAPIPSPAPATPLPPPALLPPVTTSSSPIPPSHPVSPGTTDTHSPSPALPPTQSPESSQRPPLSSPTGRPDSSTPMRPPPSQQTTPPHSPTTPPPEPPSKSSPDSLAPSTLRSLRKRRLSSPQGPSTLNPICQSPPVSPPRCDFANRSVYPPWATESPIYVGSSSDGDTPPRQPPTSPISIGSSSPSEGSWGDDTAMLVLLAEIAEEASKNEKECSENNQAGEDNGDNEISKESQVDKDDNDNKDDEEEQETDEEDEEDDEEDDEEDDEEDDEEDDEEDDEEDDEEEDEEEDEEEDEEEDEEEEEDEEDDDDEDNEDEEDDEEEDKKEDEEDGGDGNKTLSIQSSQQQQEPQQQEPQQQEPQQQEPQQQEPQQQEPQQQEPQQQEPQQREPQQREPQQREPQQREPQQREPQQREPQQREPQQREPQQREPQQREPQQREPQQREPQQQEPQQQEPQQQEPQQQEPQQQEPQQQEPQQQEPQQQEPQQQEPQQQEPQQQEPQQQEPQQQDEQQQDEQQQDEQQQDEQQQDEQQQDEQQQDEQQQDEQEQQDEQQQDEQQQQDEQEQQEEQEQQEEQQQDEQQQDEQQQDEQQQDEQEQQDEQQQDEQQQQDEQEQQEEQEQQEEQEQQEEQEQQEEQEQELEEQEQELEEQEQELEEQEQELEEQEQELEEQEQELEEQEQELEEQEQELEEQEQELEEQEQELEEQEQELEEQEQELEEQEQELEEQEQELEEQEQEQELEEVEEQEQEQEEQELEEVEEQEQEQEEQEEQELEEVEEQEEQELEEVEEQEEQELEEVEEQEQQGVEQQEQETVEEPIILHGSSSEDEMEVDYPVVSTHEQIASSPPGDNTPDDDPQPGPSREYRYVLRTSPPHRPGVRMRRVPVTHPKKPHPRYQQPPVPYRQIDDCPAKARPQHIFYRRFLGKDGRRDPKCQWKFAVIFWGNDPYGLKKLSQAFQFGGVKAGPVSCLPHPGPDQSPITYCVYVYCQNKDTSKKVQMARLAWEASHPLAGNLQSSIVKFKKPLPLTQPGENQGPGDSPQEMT
E coli growth – inhibitors of Escherichia coli growth. OD600, 23 h; active compounds read low. OD600 absorbance (test concentration not listed). hit rate 0.21% among 330,000;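 active = OD600 absorbance below the run mean of sample wells minus 3.6 SD, in any replicate, cut at about 0.56 in these data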;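 also: stock transfer was 300 nL into about 60 µL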
Beta2AR agonist – activates human beta-2 adrenergic receptor causing internalization; response, % (no concentration beside the values); AID 504454; Am2.2-beta2AR cells, FAP receptor internalization, flow cytometry; reference of the scale not given here; P07550; hit rate 0.43% among 340,000;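 active = response above a set limit, near 3 SD of response in nonfluorescent compounds, cut at about 42% in these data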;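 also: stock transfer was 100 nL into about 11 µL; a reference agonist was the positive control; negative values mostly stem from fluorescent compounds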
Starred values were filed as active, the others as inactive; ? = inconclusive; nt = not tested or not shown.

Below each SMILES – HNF4A DNA FP, UCH37 inh, Vif A3G, Bfl-1 A1 inh, LANA-H2B inh, E coli growth, Beta2AR agonist
O=C(Cn1cc([N+](=O)[O-])cn1)NC1CCCCCC1
→ 3.1, 6.5, nt, -1.0, -7.7, 0.71, 6
CCCN1Cc2cccc(C(=O)NCc3ccc4c(c3)OCO4)c2C1=O
→ 7.7, 4.9, 1%, -0.6, -4.1, 0.67, -5
COc1ccc(NS(=O)(=O)c2ccc(N3CCCC3=O)cc2)cn1
→ -1.4, -0.6, 15%, -0.2, -9.4, 0.7, -22
Cc1ccc(-c2csc3nc[nH]c(=O)c23)cc1
→ 6.4, -0.6, 5%, 0.2, 0.0, 0.7, -9
CCOC(=O)c1[nH]c(C)c(C(=O)NCc2cccnc2)c1C
→ 7.8, 5.4, 2%, -0.4, -3.0, 0.72, 0
CN(C)CCN1C(=O)C(O)=C(C(=O)c2ccco2)C1c1ccccc1F (stereo not drawn)
→ -3.6, 3.6, 2%, 0.2, 4.4, 0.74, -5
O=C(c1ccc([N+](=O)[O-])cc1)n1nc(-c2ccccc2)nc1NCc1ccccc1
→ -12, -1.1, ?, 1.0, -0.4, 0.78, 2
CCCCn1c(N)c(N(CCOC)C(=O)COc2ccc(Cl)cc2)c(=O)[nH]c1=O
→ 0.5, 0.5, -3%, 0.3, -2.1, 0.73, 5
COc1ccc([C@@H]2C[C@@H](c3ccccc3)Oc3cc(C)cc(C)c32)cc1
→ -1.8, 1.6, 4%, nt, nt, nt, 3
CC(C)(C)OC(=O)N1CCC(CC2CC(c3ccccc3)=NO2)(C(=O)O)CC1 (stereo not drawn)
→ 1.7, -0.5, nt, -0.1, 0.8, 0.68, -1
CCOC(=O)CNC(=O)c1ccc(SCC)cc1
→ -2.1, 5.6, -4%, -4.9, -4.2, 0.66, -7
O=C(NCc1cccs1)c1ccccc1[N+](=O)[O-]
→ 0.6, -3.0, 1%, -0.1, -3.7, 0.7, 8
CCn1c(=S)sc2c(=O)[nH]c(SCC(=O)Nc3cc(OC)ccc3OC)nc21
→ 1.4, 18, nt, 2.2, -0.3, 0.68, 32
CN1/C(=C\C(=O)Nc2ccc(F)cc2)C(C)(C)c2ccccc21
→ -1.1, 6.9, nt, -0.9, -2.7, 0.69, 6
Cc1cccc(-c2nc(=S)c3c(n2Cc2ccco2)CCCC3)c1
→ 1.9, 9.0, ?, -0.8, 0.1, 0.72, 5
O=C(CNC(=O)c1ccccc1)NC1(C(=O)NC2CCCC2)CCCCC1
→ -0.3, -1.0, 11%, -0.2, -2.0, 0.73, -3
CC1(C)CC2C1CCC1(O)CC2(C)CCC1N(O)c1ccc(C(=O)NCCO)cn1 (stereo not drawn)
→ 3.5, 4.2, nt, -0.5, -1.1, 0.79, 0
COc1ccc(CCNC(=O)CSCC(=O)Nc2cc(S(C)(=O)=O)ccc2Cl)cc1
→ -2.5, 0.3, nt, -0.1, -1.6, 0.68, -6
COCC(=O)N(C)C[C@H]1N[C@@](C)(C(=O)OC)[C@H]2C(=O)N(Cc3ccccc3)C(=O)[C@@H]12
→ 1.9, -1.3, 7%, nt, nt, 0.7, -3
O=C(NNC(=S)Nc1ccccc1)c1ccc2ncccc2c1
→ -2.7, 5.6, 24%, 0.8, -1.1, 0.7, 7
Cc1ccc(-c2cc(C(=O)Nc3nccs3)c3ccccc3n2)o1
→ -1.8, nt, nt, 0.0, 5.3, nt, -1
O=C(COc1ccc(Br)cc1)NNC(=O)Cc1ccc(S(=O)(=O)N2CCOCC2)s1
→ -0.1, 0.1, nt, nt, nt, 0.69, 0
O=C(NCc1ccco1)C1CCCN(S(=O)(=O)c2cc(Cl)ccc2Cl)C1 (stereo not drawn)
→ -1.4, 5.1, -7%, 1.0, -9.1, 0.69, -5
COc1cc(C(CCN2CCOCC2)c2c(OC)cc(OC)c3c(-c4ccccc4)cc(=O)oc23)cc(OC)c1OC (stereo not drawn)
→ 0.9, 1.2, -2%, nt, nt, 0.7, -1
O=C(Nc1ccc(C(=O)N2CCCC2)cc1)Nc1ccc(Cl)cc1Cl
→ 0.1, -0.4, 14%, -0.3, -2.4, 0.68, 2
O=C(NC(NC(=S)Nc1c(Cl)cccc1Cl)C(Cl)(Cl)Cl)OCc1ccccc1 (stereo not drawn)
→ -1.4, 3.7, nt, -0.6, nt, 0.7, 6
CC(C)(C)OC(=O)N1CCC[C@H]1c1nnc(SCC(=O)Nc2cccc(Cl)c2)o1
→ 2.5, -0.5, -23%, -0.2, -2.2, 0.64, -1
CCOC(=O)c1ccc(-c2ccc(/C=N/NC(=O)CN(c3cccc(C)c3)S(C)(=O)=O)o2)cc1
→ 3.3, nt, 14%, 17*, 1.6, nt, 12
O=C(c1ccccc1)N1CCCC(C(=O)N2CCc3ccccc3C2)C1 (stereo not drawn)
→ 3.4, 5.3, 6%, 0.2, 3.1, 0.67, -5
CCOC(=O)c1ccccc1NC(=O)c1ccc(NS(C)(=O)=O)cc1
→ 2.8, 5.5, -4%, -0.8, -6.6, 0.71, -3

Additional compounds:
Below each SMILES – HNF4A DNA FP, UCH37 inh, Vif A3G, Bfl-1 A1 inh, LANA-H2B inh, E coli growth, Beta2AR agonist
Cc1cccc(OCC(=O)NCC(=O)n2nc(C)cc2C)c1
→ 1.9, 2.0, -4%, -0.5, 2.6, 0.69, 3
COc1ccc2nc(C)cc(SCC(=O)N/N=C/c3c(OC)ccc4ccccc34)c2c1
→ 17, nt, nt, 0.7, 7.8, nt, 8
COc1ccccc1C1CCN(Cc2cccc([N+](=O)[O-])c2)CC1
→ 0.9, 4.0, 8%, 0.7, 1.9, 0.66, -4
O=C(COC(=O)c1cccnc1Cl)NC1CCCc2ccccc21 (stereo not drawn)
→ 1.7, 2.0, nt, 0.7, -3.4, 0.71, 7
CNC(=O)NC(=O)C(OC(=O)Cc1cccc(C(F)(F)F)c1)c1ccccc1 (stereo not drawn)
→ -1.3, 1.4, nt, -0.8, 0.1, 0.66, 5
COc1cc(C=O)ccc1OCCCCOc1ccccc1[N+](=O)[O-]
→ -1.3, 4.3, nt, 0.1, -1.8, 0.66, -3
CCc1ccc(NC(=O)C2CCN(S(=O)(=O)c3c(C)noc3/C=C/N(C)C)CC2)cc1
→ -2.4, 6.4, 9%, -0.4, -4.9, 0.65, 0
COC(=O)C1CCCCN1C(=O)CCc1nnc(CCc2c[nH]c3ccccc23)o1 (stereo not drawn)
→ -1.6, -0.7, -17%, -0.2, 12, 0.71, 1
COc1ccc2c(c1)OC[C@H]1[C@H]2N2C(=O)CN(Cc3ccc(C)cc3)C(=O)[C@@]2(C)[C@H]1c1ccccc1
→ 10, 4.2, nt, 2.2, 5.6, nt, -4
CC(C)(C)C(=O)OCc1cn(-c2ccc(Cl)cc2)nn1
→ 5.9, 2.7, 3%, 0.0, 1.2, 0.65, -4
CC1Sc2ccc(C(=O)Nc3ccc(S(=O)(=O)N(C)C)cc3)cc2NC1=O (stereo not drawn)
→ 3.1, 4.9, -4%, 1.2, -3.2, 0.55, 9
C=CCN(CC=C)S(=O)(=O)c1ccc(NC(=S)NC(=O)/C=C/c2ccc(C)cc2)cc1
→ 1.2, 8.5, ?, -0.8, -2.1, 0.77, 2
COc1ccc(Cn2cnc3sccc3c2=O)cc1
→ -1.9, 0.7, 32%, 0.4, -0.3, 0.64, -4
COc1ccc(-c2cc(=O)oc3cc(OCC(=O)NCC(O)c4ccccc4)ccc23)cc1 (stereo not drawn)
→ 7.1, -25, nt, -0.6, -3.0, 0.78, -2
COc1cccc(C(=O)Nc2ccc3nc(N4CCN(c5ncccn5)CC4)cc(C)c3c2)c1OC
→ nt, -55, ?, -0.5, 3.6, 0.76, nt
CCOC(=O)N1CCN(C(=O)CCSCCc2ccncc2)CC1
→ -0.2, -1.1, 14%, -1.9, 5.6, 0.68, -3
Cc1nn(CC(=O)NCc2cccs2)c(=O)c2nn(-c3ccccc3)c(C)c12
→ -0.6, 3.8, nt, 0.3, -3.6, 0.69, 0
NC(=NCCc1c[nH]c2ccccc12)NS(=O)(=O)c1ccc(F)cc1
→ 0.5, -2.0, -9%, -0.3, 4.7, 0.67, 6
O=C(c1ccc([N+](=O)[O-])o1)N1CCc2ccccc2C1
→ -3.9, 6.6, 1%, 0.3, 1.4, 0.6, 4
Cc1ccc(C(=O)NCc2ccc3c(c2)CCO3)cc1C
→ 1.5, 5.2, -13%, 0.3, -0.5, 0.69, -7
COc1ccc(N(CC(=O)Nc2c(C)n(C)n(-c3ccccc3)c2=O)S(=O)(=O)c2ccc(F)cc2)cc1
→ -0.2, 3.4, 0%, 0.7, 1.3, 0.73, -6
Cc1ccc(S(=O)(=O)N2CCOCC2)cc1NC(=O)COC(=O)CCC(=O)c1cccs1
→ 1.2, 0.4, -4%, 0.5, 0.3, 0.72, -8
COc1ccc(C(=O)Nc2cccc(N(C)S(C)(=O)=O)c2)cc1OC
→ -2.6, 0.7, 9%, -5.1, 1.9, 0.6, 4
CC(=O)c1ccc(N2CCC(c3cc(-c4ccc(Cl)cc4)n[nH]3)CC2)c([N+](=O)[O-])c1
→ -1.6, 3.8, 1%, -0.5, 0.9, 0.72, 5
O=C(Nc1ccnn1C1CCN(C/C=C/c2ccccc2)CC1)c1ccccc1Cl
→ -3.2, 6.4, 22%, 0.7, -5.0, 0.69, 0
CCN(CC)c1cc2nonc2c2nonc12
→ -3.0, 4.9, 4%, 0.8, -1.8, 0.69, 2
C/C(CS(=O)(=O)c1ccc(Cl)c(Cl)c1)=N/NC(N)=S
→ -1.7, nt, -4%, 0.5, -1.3, nt, -9
O=C(Nc1ccc(Oc2ncnc3cc(Cl)ccc23)nc1)c1cccs1
→ 8.6, 4.2, -26%, -1.3, -6.9, 0.69, -9
COc1ccc(OC)c(C2CC(=O)Nc3n[nH]c(-c4ccccc4)c32)c1 (stereo not drawn)
→ 4.5, 2.2, -5%, 0.0, -7.0, 0.72, 6
Cc1cccc(C)c1NC(=O)CN(C)C(=O)[C@H](C)NC(=O)c1ccco1
→ 0.7, 1.8, 5%, -0.6, 6.6, 0.61, -2
CCOC(=O)C1=C(c2ccccc2)OC(N)=C(C#N)C1C(C)C (stereo not drawn)
→ 0.7, 2.2, -8%, 0.0, 2.7, 0.7, -4
O=C(Cn1cnc2c(nnn2Cc2ccccc2)c1=O)N1CCCc2ccccc21
→ 2.8, 4.3, -2%, 0.7, 0.7, 0.77, 1

Only Beta2AR agonist and E coli growth, for 3 of the compounds above:
canonical_smiles,Beta2AR agonist,E coli growth
CCN(CC)c1cc2nonc2c2nonc12,2,0.69
O=C(c1ccccc1)N1CCCC(C(=O)N2CCc3ccccc3C2)C1 (stereo not drawn),-5,0.67
CCOC(=O)c1[nH]c(C)c(C(=O)NCc2cccnc2)c1C,0,0.72
